MARV entry inh: blocks Marburg virus binding to or entry into cells | Marburg virus pseudotyped entry inhibition, cell reporter; control for the full effect not named in the record; about a third of the inactives were read at about 46 µM | Potency, µM (doses to about 37.8 µM), without a hit: at the highest dose activity change, negative = inhibition, usual class: inhibitors | hit rate 1.8% among 300,000 | AID 540276; active = well fitted inhibition curve with a large enough effect; inconclusive = small, poorly fitted or top-dose-only effect, or effect the other way; inactive = flat fitted curve, though single readings scatter; tested in HEK293 cells; about a fifth of its hits are not listed in these tables; further: on the % scale 0 is the no-effect control and ±100 the full control effect; luciferase read-out
RE007 growth inh: less growth of the S. pombe RE007 Vpr strain | Potency, µM (doses to about 92.2 µM), for the others: at the top dose activity change, negative = less growth | S. pombe RE007 Vpr strain, BacTiter-Glo ATP luminescence, 24 h; control for the full effect not named in the record | hit rate 0.21% among 360,000; active = well fitted falling curve with a large enough effect; inconclusive = small, poorly fitted or top-dose-only effect; inactive = no such curve, though single readings can be large or run the other way;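 further: on the % scale 0 is the no-effect control and ±100 the full control effect; nearly all actives have a fitted effect of over 50% in size; the assay follows cell death caused by Vpr and the record does not say whether a fall means rescue or toxicity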
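Fission yeast strain RE007, carrying one chromosomally integrated HIV-1 vpr copy, was seeded at OD 0.01 in PMG+AL medium with 23 nL pinned compound. After 24 h at 30 °C and 99% humidity, viability was read by BacTiter-Glo luminescence.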
2A StopGo: FMDV 2A StopGo reporter, luciferase signal; AID 1159524; hit rate 1.2% among 410,000; human cells with a luciferase reporter of 2A StopGo recoding; control for the full effect not named in the record; Potency, µM (highest dose often 57.9 µM), for the others: top-dose signal change, negative = less light; active = well fitted falling curve with a large enough effect; inconclusive = small, poorly fitted or top-dose-only effect; inactive = no such curve, though single readings can be large or run the other way; tested in HEK293T cells; further: on the % scale 0 is the no-effect control and ±100 the full control effect; nearly all actives have a fitted effect of over 45% in size; luciferase light after 4 h
SARS PLpro yeast: inhibitors of SARS-CoV papain-like protease in yeast | S. cerevisiae expressing SARS-CoV PLpro, growth rescue; control for the full effect not named in the record | Potency, µM (doses to about 32.9 µM), for inactives: top-dose activity, positive = growth rescue | hit rate 0.19% among 330,000 | AID 485353; further: 0% is about no effect; nearly all actives have a fitted effect of over 55% in size; growth read by luminescence after 48 h
Cruzain inh noDet: blocks cruzain activity in detergent-free assay; purified cruzain, Z-FR-AMC fluorescence, no detergent; Potency, µM, for inactives: max response, negative = inhibition, usual class: inhibitors; P25779; hit rate 2.3% among 200,000; active means well fitted curve in the direction sought with a large enough effect; inconclusive means small, poorly fitted or top-dose-only effect, or another doubt; inactive means no such curve, though single readings can be large; an effect the other way counts as inactive or inconclusive;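 further: plate controls were enzyme without inhibitor for no effect and buffer without enzyme for full effect; nearly all actives have a fitted effect of over 40% in size; top concentration of the series not given in the record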
Target sequence (P25779 123-467 limits assumed): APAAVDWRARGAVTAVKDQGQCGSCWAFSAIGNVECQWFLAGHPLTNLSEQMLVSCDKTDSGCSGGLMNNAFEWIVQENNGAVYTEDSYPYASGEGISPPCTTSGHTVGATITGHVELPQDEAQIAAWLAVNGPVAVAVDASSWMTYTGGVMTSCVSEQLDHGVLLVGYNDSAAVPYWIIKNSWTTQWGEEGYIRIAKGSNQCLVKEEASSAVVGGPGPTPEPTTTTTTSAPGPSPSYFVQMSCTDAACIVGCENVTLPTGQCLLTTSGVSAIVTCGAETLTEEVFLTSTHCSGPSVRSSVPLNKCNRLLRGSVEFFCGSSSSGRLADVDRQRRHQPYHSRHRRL
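Detergent-free condition (0.00005% Triton X-100) in acetate buffer pH 5.5 with DTT. 1.5 nM enzyme and compound were pre-mixed 15 min, then 2 uM Z-FR-AMC substrate added; reaction progress from fluorescence change between first and third reads (60 s).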
NS1 function inh: blocks influenza NS1 protein function; S. cerevisiae slowed by influenza A NS1, growth recovery by OD600; Potency, µM (doses to about 46.1 µM), without a hit: at the top dose activity, positive = more growth; hit rate 0.4% among 270,000; further: actives are rising curves; nearly all actives have a fitted effect of over 50% in size
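A cell-based growth assay was used: compounds that relieve NS1-induced slow growth of budding yeast raise OD600. Assay medium was yeast nitrogen base with ammonium sulphate and -URA supplement, pH 6.0, with 2% galactose.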
Cruzain inh Det: inhibitors of Trypanosoma cruzi cruzain with detergent; hit rate 0.43% among 200,000; AID 1478; Potency, µM, for the others: max response, negative = inhibition, hits mostly inhibitors; purified cruzain, Z-FR-AMC fluorescence, 0.01% Triton; P25779; active means well fitted curve in the direction sought with a large enough effect; inconclusive means small, poorly fitted or top-dose-only effect, or another doubt; inactive means no such curve, though single readings can be large; an effect the other way counts as inactive or inconclusive;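 further: plate controls were neutral wells for no effect and buffer without enzyme for full effect; nearly all actives have a fitted effect of over 40% in size; top concentration of the series not given in the record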
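Sodium acetate buffer (100 mM, pH 5.5) containing 5 mM DTT and 0.01% Triton X-100 hosted 1.5 nM cruzain and test compound for 15 min at room temperature. Cleavage of 2 uM Z-FR-AMC was then tracked by fluorescence.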
Lassa entry inh: Lassa virus entry inhibition; Lassa virus pseudotype entry inhibition, cell reporter; control for the full effect not named in the record; Potency, µM (series often up to 37.9 µM), for the others: at the highest dose activity change, negative = inhibition, usual class: inhibitors; hit rate 1.2% among 300,000; AID 540256; active means well fitted inhibition curve with a large enough effect; inconclusive means small, poorly fitted or top-dose-only effect, or effect the other way; inactive means flat fitted curve, though single readings scatter; tested in HEK293 cells; further: on the % scale 0 is the no-effect control and ±100 the full control effect; nearly all actives have a fitted effect of over 50% in size; luciferase read-out
Numbers without * were called inactive; ? = inconclusive; . = not tested or not shown; & = joins results of further samples; [ ] = dose if it differs, or a comment. Unless noted, the call rests on the fitted dose curve; in most records, active means well fitted rising curve with a large enough effect; inconclusive means small, poorly fitted or top-dose-only effect; inactive means no such curve, though single readings can be large or run the other way. Potency means the concentration at half of the fitted maximal effect. This is a random part of the collection; any-hit rate near 4.7%.

item	Compound	SARS PLpro yeast	Cruzain inh noDet	Cruzain inh Det	2A StopGo	Lassa entry inh	RE007 growth inh	NS1 function inh	MARV entry inh
1	COc1ccc(NC(=O)c2cc(-c3ccc4c(c3)OCO4)on2)cc1OC	3%	.	.	-8%	-21%	11%	3%	13%[46.1 µM]
2	Cc1nn(C)c(C)c1S(=O)(=O)N(CC(=O)NCCN1CCOCC1)c1ccc(C(C)C)cc1	?	0%	-2.4%	0%	.	11%	-9%	.
3	CCc1ccc2c(c1)c(=O)c(S(=O)(=O)c1ccccc1)cn2CC(=O)Nc1cc(C)ccc1C	.	15%	-2.5%	-7%	17%[46.1 µM]	.	.	5%[46.1 µM]
4	O=C(Cc1ccccc1)Nc1ccc(NC(=O)C2CC2)nc1	0%	-5%	-5.5%	24%	-13%	-15%	-8%	-2%
5	Cc1cc(C)c(/C=N/n2c(C)cc(C)c(C#N)c2=O)c(C)c1	4%	2%	1.1%	7%	-11%	7%	-12%	?
6	COc1ccccc1N1CCN(C(=O)C2CCN(C(=O)c3cccc(Cl)c3)CC2)CC1	1%	.	.	-10%	9%[46.1 µM]	69%	-11%	?
7	O=c1cc(C(F)(F)C(F)F)oc2ccccc12	3%	-3%	-1.0%	.	9%	-4%	-5%	-12%
8	O=C(Nc1ccc2c(c1)OCO2)C1Cc2ccccc2CN1S(=O)(=O)c1cccs1 (stereo not drawn)	-9%	25µM*	-3.3%	42%[activator]	-4%	-9%	-5%	-17%
9	C[C@@]12C(=O)N(CC3CC3)CC(=O)N1[C@H](C1CC1)[C@@H]1C(=O)N(c3ccccc3)C(=O)[C@@H]12	4%	.	.	-10%	.	2%	-6%	.
10	COc1cc(C(=O)Nc2cc(C)ccn2)ccc1OCC(=O)N1CCOCC1	-1%	.	.	69%[activator]	-8%	-2%	-12%	?
11	O=C(CCCCn1c(=O)c2ccccc2n(CC(=O)Nc2ccc(F)cc2)c1=O)NCc1ccco1	4%	0%	3.2%	0%	-11%	17%	4%	18%&18%
12	COc1cc(-c2cc(O)c(-c3ccc4ccccc4n3)c(=O)[nH]2)cc(OC)c1OC	.	.	.	-11%	?	14%	.	?
13	Cc1ccccc1Cn1nc(C)c(NC(=O)C2c3ccccc3Oc3ccccc32)c1C	-5%	14%	-1.7%	-15%	1%	3%	23%	-28%
14	COc1ccc(/C=C\C(=O)c2c(O)ccc3c(C)cc(=O)oc23)cc1	-3%	11%	-8.7%	?	-26%	0%	0%	-3%
15	CNc1ncnc2c1ncn2[C@@H]1O[C@H](CO)[C@H](O)[C@H]1O	.	7%	4.8%	.	.	.	-7%	?
16	CC(C)(C)NC(=O)c1ccc2c(c1)N(CC(=O)N1CCN(c3ccccc3F)CC1)C(=O)C(C)(C)O2	-5%	?	-0.2%	-13%	2%	7%	-15%	-20%
17	CCc1ccccc1N(CC(=O)NC1CCCCC1)C(=O)CNC(=O)c1ccco1	2%	.	.	0%	0%	-1%	-6%	-10%[46.1 µM]
18	CCOc1cc(S(=O)(=O)n2nc(C)cc2C)ccc1Br	1%	.	.	-9%	1%	5%	-4%	-22%[46.1 µM]
19	COC(=O)c1[nH]c2cccc(OC)c2c1NC(=O)CN1CC2(C)CC1CC(C)(C)C2 (stereo not drawn)	1%	10%	2.9%	-14%	-26%	-1%	-6%	13%
20	CCSC(=O)CCCCCCCCCCCO	7%	10%	1.9%	-8%	2%	3.2µM*	-45%	-8%
21	CCCCCOc1ccc(C(=O)OC(C)C(=O)NCc2ccco2)cc1 (stereo not drawn)	9%	.	.	-1%	.	0%	-19%	.
22	Cc1cc(CCC(=O)O)c(C)cc1CCC(=O)O	3%	0%	0.3%	-10%	-2%	-1%	9%	-2%&-2%
23	CCN(CC)c1ccc(Nc2nc(-c3cccnc3)cs2)cc1	-4%	.	.	6%	3%	29%	-2%	?
24	Cc1ccnc(NS(=O)(=O)c2ccc(NS(=O)(=O)c3cccs3)cc2)n1	16%	4%	-2.0%	1%	13%	10%	3%	1%
25	CN(CC(=O)Nc1ccccc1Cl)C(=O)c1cc2c(s1)CCCCC2	.	.	.	-22%	?	-1%	.	-7%
26	C[C@]12CCC(=O)C=C1C=CC1C2CC[C@@]2(C)C1CC[C@@]21CCC(=O)O1 (stereo partly drawn)	.	.	.	-17%	8%[46.1 µM]	-14%	.	7%[46.1 µM]
27	O=C(CN1CCCCC1)NC(=O)NC1CCCC1	-2%	.	.	5%	1%	10%	.	?
28	CC(=O)Nc1ccc(C(=O)CSc2nnc(Cc3ccccc3)o2)cc1	19%	-19%	-0.2%	12%	-7%	17%	13%	12%
29	COc1ccc(Cl)cc1S(=O)(=O)N1CCC(C(=O)N2CCOCC2)CC1	-2%	.	.	-15%	4%	0%	-10%	3%
30	CCOc1ccc(-c2nc(C(N)=O)c3c(n2)n(-c2ccc4c(c2)OCO4)c(=O)n3CC)cc1	.	-1%	0.3%	-12%	-11%[46.1 µM]	.	.	8%[46.1 µM]
31	N/C(=N\c1nc2ccccc2o1)NC(=O)c1ccc(Cl)cc1	-6%	?	2.5%	-1%	12%	5%	5%	?
32	COCCC1CCCCN1C(=O)c1cccc(OC2CCN(C3CCCC3)CC2)c1 (stereo not drawn)	0%	.	.	0%	19%[46.1 µM]	-24%	-1%	0%[46.1 µM]
33	CCN(CC)CCNC(=O)c1cc2cc3ccc(OC)cc3nc2o1	0%	.	.	-8%	.	-11%	2%	.
34	O=C(CSc1nc2ccccc2[nH]1)c1ccco1	0%	-4%	-2.4%	20%	17%	9%	-12%	?
35	Cc1cn2c(=O)cc(COc3ccc(NC(=O)c4ccc(C(C)(C)C)cc4)cc3)nc2s1	.	-1%	-2.3%	-12%	19%[46.1 µM]	.	.	22%[46.1 µM]
36	Cc1ccc(CNC(=O)c2ccc(N3CCCC3)c(NC(=O)Nc3ccc(C)cc3)c2)cc1	.	-5%	-0.1%	21%	1%[46.1 µM]	.	.	.
37	CCc1cc(-c2n[nH]c(=S)n2Cc2ccccc2)cs1	-1%	-1%	-12%	-22%	-3%	-24%	-33%	8%
38	CC(O)c1nc2c(c(=O)n(C)c(=O)n2C)n1C (stereo not drawn)	1%	.	.	-1%	.	21%	0%	.
39	COc1ccc(C(=O)Nc2nc3ccccc3[nH]2)cc1	-6%	.	.	-84%	?	?	-29%	?
40	O=c1cc(-c2ccc(F)cc2)[nH][nH]1	23%	4%	-2.8%	3%	-1%	6%	13µM*	7%
41	O=C(Nc1nc(-c2cccs2)cs1)c1ccco1	-13%	.	.	44%[activator]	-5%	?	-31%	?
42	CCC(C(=O)OCC(=O)NC1CCS(=O)(=O)C1)c1ccccc1 (stereo not drawn)	2%	.	.	5%	4%	-11%	.	-4%
43	CCCn1c(=N)c(S(=O)(=O)c2ccc(F)cc2)cc2c(=O)n3cccc(C)c3nc21	0%	.	.	13%	.	12%	1%	.
44	COc1ccc(-c2noc(CN(C(=O)c3cccs3)C(C)C)n2)cc1	-8%	2%	-0.1%	?	?	9%	-17%	?
45	O=C(c1ccc(Cl)cc1)C1CCCN(Cc2cnn(-c3ccccc3)c2)C1 (stereo not drawn)	0%	.	.	-26%	-26%	-4%	-2%	5.6µM*
46	COC(=O)c1c(NC(=O)CSc2nc3ccccc3c(=O)n2-c2ccccc2)sc(C)c1C	1%	13µM*	-3.0%	-13%	9%	0%	9%	-1%
47	NC(=O)CSc1nc2c(c(=O)n1-c1ccccc1)C1(CCCCC1)Cc1ccccc1-2	-2%	-3%	-12%	20µM*	?	-6%	14%	?
48	Cc1cc(S(=O)(=O)Nc2ccc(C(=O)N3CC(C)OC(C)C3)cc2)ccc1F (stereo not drawn)	5%	.	.	-6%	?	29%	.	2%
49	C=CC(c1ccccc1)C(C(=O)c1ccccc1)N(C)C (stereo not drawn)	1%	.	.	-21%	-5%[46.1 µM]	-14%	.	0%[46.1 µM]
50	COC(=O)Cc1c(C)c2cc(Cl)c(OC(=O)c3ccco3)cc2oc1=O	-19%	?	17%	-9%	12%	-4%	-186%	6%
51	CC(C)C(C(=O)NCc1ccco1)N(CC1CCCO1)C(=O)CNS(=O)(=O)c1ccccc1 (stereo not drawn)	1%	.	.	17%	-6%	7%	-3%	1%[46.1 µM]

Compounds listed so far containing a tert-butyl group (two):
item	Compound	SARS PLpro yeast	Cruzain inh noDet	Cruzain inh Det	2A StopGo	Lassa entry inh	RE007 growth inh	NS1 function inh	MARV entry inh
16	CC(C)(C)NC(=O)c1ccc2c(c1)N(CC(=O)N1CCN(c3ccccc3F)CC1)C(=O)C(C)(C)O2	-5%	?	-0.2%	-13%	2%	7%	-15%	-20%
35	Cc1cn2c(=O)cc(COc3ccc(NC(=O)c4ccc(C(C)(C)C)cc4)cc3)nc2s1	.	-1%	-2.3%	-12%	19%[46.1 µM]	.	.	22%[46.1 µM]

3 entries drawn at random from those above, as already listed:
item	Compound	SARS PLpro yeast	Cruzain inh noDet	Cruzain inh Det	2A StopGo	Lassa entry inh	RE007 growth inh	NS1 function inh	MARV entry inh
46	COC(=O)c1c(NC(=O)CSc2nc3ccccc3c(=O)n2-c2ccccc2)sc(C)c1C	1%	13µM*	-3.0%	-13%	9%	0%	9%	-1%
42	CCC(C(=O)OCC(=O)NC1CCS(=O)(=O)C1)c1ccccc1 (stereo not drawn)	2%	.	.	5%	4%	-11%	.	-4%
48	Cc1cc(S(=O)(=O)Nc2ccc(C(=O)N3CC(C)OC(C)C3)cc2)ccc1F (stereo not drawn)	5%	.	.	-6%	?	29%	.	2%

High-throughput results: PubChem BioAssay, National Center for Advancing Translational Sciences (NCATS)
